# HepG2: HepG2 cell cytotoxicity, dose response, cytotoxicity control, ATP luminescence, cherry-pick, activator set 2 (AID 1053143); HepG2 viability, CellTiter-Glo ATP luminescence, 72 h; activity change, negative = cytotoxicity, % at the top dose, mostly 26 µM; hits show AC50 in µM; hit rate 3.7% among 3,400;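 active = fitted AC50 at most twice the highest valid dose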;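 also: 0 = neutral control and -100 = positive control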
# * = called active by the depositor. A portion of the library (hit frequency here may not be typical).
SMILES,HepG2
CC(=O)c1ccc(-c2ccccc2)cc1,-10%
CC/C(=N\NC(N)=O)c1c(O)[nH]c(=O)[nH]c1=O,2%
O=c1c2ccccc2[nH]c(=S)n1-c1ccc2c(c1)OCCO2,-6%
C=CCN1C(=O)NC(=O)/C(=C\c2ccc(-c3ccccc3[N+](=O)[O-])o2)C1=O,0%

# Structures listed so far containing an NH in an aromatic ring (2):
SMILES,HepG2
CC/C(=N\NC(N)=O)c1c(O)[nH]c(=O)[nH]c1=O,2%
O=c1c2ccccc2[nH]c(=S)n1-c1ccc2c(c1)OCCO2,-6%

# Screening results as filed in PubChem.
